# Hsc70 ATP site – small molecules displacing fluorescent ligand from Hsc70 – biochemical, fluorescence polarization, primary screen (AID 568); 83,000 tested, under 10 active; Hsc70 fluorescence polarization, probe displacement; higher % means a stronger effect; strong numbers were not always called active; displacement, % at 20 µM, or IC50 in µM where a hit was titrated;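 active means displacement above 50% without optical interference and an IC50 on retest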;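 further: ATPase domain with a fluorescein-tagged ATP probe; 0% = vehicle and 100% = excess ADP; read after one hour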
# MT1-MMP promoter – inhibitors of MT1-MMP promoter transcription, cell-based, luciferase reporter, luminescence (AID 618); hit rate 0.62% among 87,000; MT1-MMP promoter luciferase reporter cells, luminescence; calls from a first round at 10 µM; hits with a dose series show EC50 in µM;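 active means over half of the reporter light lost at 10 µM or EC50 under 50 µM; inactive means the rest and hits that failed the dose series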;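 further: actives suppress MT1-MMP promoter-driven transcription so potencies describe inhibitors; HT1080 fibrosarcoma cells; overnight exposure; toxic or luciferase-blocking compounds were not removed from the actives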
# WNV NS2B-NS3 inh – WNV NS2B-NS3 proteinase inhibition; P06935; WNV NS2B-NS3 protease, fluorogenic substrate Ex360/Em465; active compounds read low; z-score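 (tested at a level between 10 and 100 µM)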; hit rate 0.18% among 65,000;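 active means z-score at -3 or under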;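 further: score is relative to mean and spread of the compound wells of a plate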
# Target sequence (P06935 1371-1501 limits assumed): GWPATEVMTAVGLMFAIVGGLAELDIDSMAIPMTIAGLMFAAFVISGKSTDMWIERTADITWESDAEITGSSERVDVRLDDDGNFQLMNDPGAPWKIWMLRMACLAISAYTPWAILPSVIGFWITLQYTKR
# Target sequence (P06935 1502-1679 limits assumed): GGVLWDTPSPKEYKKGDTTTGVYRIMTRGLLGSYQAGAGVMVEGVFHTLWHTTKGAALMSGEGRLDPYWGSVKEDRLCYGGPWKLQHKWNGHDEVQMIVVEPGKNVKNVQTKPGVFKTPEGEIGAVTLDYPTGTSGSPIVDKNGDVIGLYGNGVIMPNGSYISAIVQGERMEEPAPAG
# * marks the source's active call; other numbers are inactive results; i = inactive; . = no result given; + = active, no number. Compounds were not picked by outcome; 0.87% or so of the library scored in one or more.
# Start of the listing, in advance, four compounds:
# Each structure is followed by: Hsc70 ATP site | MT1-MMP promoter | WNV NS2B-NS3 inh
O=C(CN(CC1CCCO1)S(=O)(=O)c1ccc(S(=O)(=O)NC2CC2)cc1)Nc1ccccc1 (centres undefined)
  -1.1% | i | 0.85
Cc1nc2sc(C(c3cccc(F)c3)N3CCCCC3)c(O)n2n1 (centres undefined)
  3.1% | i | -1.22
O=C(NCc1ccc(N2CCCC2=O)cc1)Nc1cccc(Cl)c1
  3.1% | i | 0.94
COc1ccc(Cl)cc1NC(=O)C12CCC(C)(C(=O)O1)C2(C)C (centres undefined)
  5.4% | i | .

# Main list (from the top)
# Each structure is followed by: Hsc70 ATP site | MT1-MMP promoter | WNV NS2B-NS3 inh
O=C(CN(CC1CCCO1)S(=O)(=O)c1ccc(S(=O)(=O)NC2CC2)cc1)Nc1ccccc1 (centres undefined)
  -1.1% | i | 0.85
Cc1nc2sc(C(c3cccc(F)c3)N3CCCCC3)c(O)n2n1 (centres undefined)
  3.1% | i | -1.22
O=C(NCc1ccc(N2CCCC2=O)cc1)Nc1cccc(Cl)c1
  3.1% | i | 0.94
COc1ccc(Cl)cc1NC(=O)C12CCC(C)(C(=O)O1)C2(C)C (centres undefined)
  5.4% | i | .
CS(=O)(=O)N(CCc1ccccc1)CC(=O)N1CCCCC1
  1.0% | i | -0.7
CCCCC(=O)Nc1nc2ccc3nc(C)sc3c2s1
  5.1% | i | 1.21
CCC(c1nnc(SCC(=O)Nc2nnc(-c3ccccc3)o2)n1Cc1ccccc1)N(C)C (centres undefined)
  -1.2% | i | 0.51
CC(=O)c1cccc(NC(=O)c2c(F)c(F)c(F)c(F)c2F)c1
  1.5% | i | 2
CCS(=O)(=O)N1CCN(c2ccccc2F)CC1
  -3.6% | i | 0.25
O=C(N1CCOCC1)N1CCCN(C(=O)N2CCOCC2)CC1
  1.8% | i | -1.19
O=C(O)CCCC(=O)N1CC(=O)Nc2ccccc21
  1.2% | i | -0.23
COC(=O)c1cc(NC(=O)CCc2c(C)nc3ncnn3c2C)cc(C(=O)OC)c1
  -1.9% | i | 0.00215
CCOC(=O)c1ccccc1NC(=O)c1cc(S(=O)(=O)N2CCOCC2)ccc1F
  6.5% | i | 0.11
Cc1cc2cc(CN3C(=O)c4ccccc4C3=O)ccc2[nH]1
  -1.0% | i | 0.14
O=C(Nc1ccccc1Cl)C1CCCN(S(=O)(=O)c2ccc(F)cc2)C1 (centres undefined)
  2.4% | i | .
CC(=O)c1c(C)n(-c2ccccc2)c2ccc(OCC(O)CN3CCOCC3)cc12 (centres undefined)
  -2.9% | i | -0.66
O=C(Nc1ccc2c(c1)OCCO2)C1CCCN(S(=O)(=O)c2cccc3nsnc23)C1 (centres undefined)
  0.6% | i | .
O=C(c1cc(-c2ccc(Cl)cc2Cl)on1)N1CCOCC1
  4.6% | + | -0.23
CC(C)CC(NC(=O)C(CC(C)C)NC(=O)OC(C)(C)C)C(=O)O (centres undefined)
  -2.6% | i | -1.59
Cc1cc(C(F)(F)F)nc(Nc2nc(C)c3ccccc3n2)n1
  2.6% | i | -0.25
Cc1nn(C(CC(=O)O)C(=O)O)c(C)c1Br (centres undefined)
  0.3% | i | .
CC1Cc2ccccc2N1S(=O)(=O)c1cnc[nH]1 (centres undefined)
  -9.3% | i | 1.04
CCCCn1c(SCC(=O)O)nc2ccccc21
  -0.9% | i | -2.65
COCCCN1CN(S(=O)(=O)c2ccc(Cl)cc2)c2nc3ccccc3nc21
  -7.8% | i | -1.69
C=CCN(C(=O)Cn1nnc2ccccc21)C(C(=O)NCCOC)c1ccc(OC)cc1OC (centres undefined)
  -1.4% | i | 1.06
CCOC(=O)C1CCN(C(=O)COc2ccc(S(=O)(=O)NC(C)C)cc2Cl)CC1
  2.5% | i | 0.83
CCOC(=O)C1=C(c2ccccc2)N=C2SCC(=O)N2C1c1ccc(O)c(OC)c1 (centres undefined)
  1.9% | i | .
CC1CC(C)CN(CCCNC(=O)c2ccc(CS(=O)(=O)Cc3ccccc3F)o2)C1 (centres undefined)
  1.2% | i | -0.44
CN(CC(=O)N1CC=C(c2ccccc2)CC1)S(=O)(=O)c1ccc2c(c1)c(=O)n(C)c(=O)n2C
  0.4% | i | 0.24
COc1ccc(CCN(Cc2nc3ccccc3c(=O)[nH]2)C(=O)c2ccco2)cc1
  3.1% | i | 1.42
Cc1ccccc1NCN1C(=O)C2C3C=CC(C3)C2C1=O (centres undefined)
  7.2% | i | 1.69
CCOc1ccc(-c2cc(CCCC(=O)NCCCOC)no2)cc1
  -2.0% | 8.32µM* | 0.14
O=C1c2ccccc2C(O)N1Cc1ccccc1 (centres undefined)
  -6.9% | i | 2.3
COc1ccc(CCNC(=O)CN(c2ccccc2OC)S(C)(=O)=O)cc1
  -3.8% | i | 0.51
CCCCNCc1cccn1-c1ccccc1
  1.3% | i | .
COc1cccc(Cn2cccc(NC(=O)NC3CCCCC3)c2=O)c1
  2.9% | i | -0.51
O=c1cc(CO)oc(CN2CCN(c3ccccc3F)CC2)c1O
  -0.1% | i | 1.08
CCC(=O)N1CCc2cc(S(=O)(=O)NCCC(=O)N3CC=C(c4ccccc4)CC3)ccc21
  6.8% | i | 0.83
Cc1cc(O)c(C2(C(F)(F)F)NCCNC2=O)cc1C (centres undefined)
  -1.2% | i | -0.8
CCOc1ccc(CN(C)CC(=O)c2c(N)n(Cc3ccccc3)c(=O)n(CC)c2=O)cc1OC
  -4.1% | i | .
O=C(Nc1ccc(N2CCN(C(=O)c3ccccc3)CC2)cc1)c1ccc(Br)o1
  -0.7% | i | 1
NC(=O)C1(N2CCCCC2)CCN(C(=O)c2ccccc2)CC1
  3.0% | i | -0.64
CCCNS(=O)(=O)c1ccc(C(=O)NCC2CCCO2)cc1 (centres undefined)
  1.7% | i | -1.18
COc1ccccc1CNc1nc2ccccc2n1CCN1CCCCC1
  -0.5% | i | -0.99
COc1cccc(C2NC(=O)NC(C)=C2C(=O)Nc2ccc(C)cc2)c1OC (centres undefined)
  -2.4% | i | -0.51
CC(=O)N1CCc2cc(S(=O)(=O)NC(Cc3ccccc3)C(=O)NC3CCCCCC3)ccc21 (centres undefined)
  -1.3% | i | .
O=C(CCC(=O)N1CCOCC1)Nc1nnc(C2CCCCC2)s1
  -2.3% | i | .
CCN(CC)C(=O)C1CCC(CNS(=O)(=O)c2cccc3cccnc23)CC1 (centres undefined)
  -3.1% | i | 0.31
Cc1cc2nn(-c3cccc4ccccc34)nc2cc1N
  3.6% | i | 1.52
Cc1cc(C)cc(NC2=NCC(=O)N2Cc2ccccc2)c1
  -0.9% | i | -0.78
CCOC(=O)c1ccc(NC(=O)CC2COc3ccccc3O2)cc1 (centres undefined)
  2.1% | i | 0.52
O=c1c2oc3ccccc3c2ncn1Cc1ccccc1F
  4.6% | i | 0.75
Cc1cc(C)n(C(=O)CCNC(=O)c2ccccc2Br)n1
  2.9% | i | 0.81
COc1cc([C@H]2[C@@H]3CCCC[C@]3(O)CCN2CC(=O)Nc2ccc(C)cc2C)ccc1O
  -4.3% | i | 0.77
CCOC(=O)C(CCCOc1cccc(CC)c1)C(=O)OCC
  0.3% | i | .
COc1ccc(/C=N/n2cnnc2SCCO)cc1OC
  -1.2% | i | -0.45
O=C(Nc1ccc2c(c1)nc1n2CCN(C2CCCCC2)C1)c1ccco1
  -4.8% | i | 0.29
O=C(CCn1c(=O)sc2ccccc21)Nc1cccnc1
  -0.3% | i | -0.62
CCCCn1c(O)c(C=NCCCN(C)C)c(=O)[nH]c1=O
  -7.7% | i | -0.45
CCCn1c(C(C)NC(=O)c2ccccc2)nc2ccccc21 (centres undefined)
  -2.2% | i | .

# (next part)
# Each structure is followed by: Hsc70 ATP site | MT1-MMP promoter | WNV NS2B-NS3 inh
Cc1nc(SCC(=O)O)c2oc3ccccc3c2n1
  4.8% | i | 0.06
Cc1ccc(-n2ncc3c(=O)n(-c4ccc(C)c(C)c4)c(C)nc32)cc1
  4.0% | i | -1.14
Nc1sccc1C(=O)c1ccccc1
  -6.6% | i | -0.09
CCCCSc1nc(N)c(C#N)c(-c2cccs2)c1C#N
  -2.1% | i | -0.32
O/N=C1\CC(O)Cc2nonc21 (centres undefined)
  -0.9% | i | -0.38
Cc1ccc(-c2nc3cccnc3s2)cc1NC(=O)c1ccco1
  -6.7% | i | 0.6
CN(Cc1ccccc1)S(=O)(=O)c1ccc(C(=O)Nc2nnc(C3CC3)o2)cc1
  -1.4% | i | -0.83
CC(C)(C)c1csc(NC(=O)Cn2c(=O)oc3ccccc32)n1
  -3.0% | i | -0.43
CCCN1CCN(c2ncnc3c2nnn3Cc2ccccc2)CC1
  8.0% | i | -1.01
Cc1cc(NC(=O)C2C3C(=O)N(Cc4ccc(Cl)cc4)C(C(=O)NC(C)(C)C)C34C=CC2(C)O4)no1 (centres undefined)
  1.8% | i | .
COc1ccc(S(=O)(=O)Nc2ccc3c(c2)OCO3)cc1Cl
  4.9% | i | 0.66
Cc1cccc(C)c1OCC(O)CNS(=O)(=O)c1ccccc1C(=O)N1CCCCC1 (centres undefined)
  -5.8% | i | 0.47
CCOC(=O)C1CCCN(C(=O)c2cc(-c3ccc(C)cc3)on2)C1 (centres undefined)
  -2.0% | i | -0.42
CC(C)(C)n1nnnc1C(c1cccs1)N(Cc1ccccc1)Cc1ccco1 (centres undefined)
  -3.3% | i | -0.39
COc1ccccc1CNc1ccc(N2CCOCC2)c(C(=O)O)c1
  0.2% | i | -0.95
CN(C)/C=C1/Sc2ccccc2C1=O
  -10.8% | i | -4.06*
O=C(c1ccccc1)c1ccc2nc(N3CCN(C(=O)c4ccco4)CC3)c3nncn3c2c1
  -8.2% | i | -1.08
CCC1Sc2ccccc2N(CC(=O)NCc2ccc3c(c2)OCO3)C1=O (centres undefined)
  -1.3% | i | -0.52
CCCC(=O)Nc1nnc(-c2ccco2)s1
  1.3% | i | 0.32
CCN1CCN(c2c(Cl)cccc2NC(=O)c2ccc3c(c2)OCCO3)CC1
  3.4% | i | 0.01
Cc1cc(-c2cccs2)n[nH]1
  -5.8% | i | -0.99
O=C(CSc1ccc(Cl)cc1)OCc1nnc(-c2ccccc2)o1
  -5.0% | i | 0.21
CCOC(=O)c1nnc(-c2cccs2)nc1Oc1ccc(Cl)cc1
  3.2% | i | .
N#CCCN(C(=O)CSc1ccc2c(c1)OCCO2)c1ccccc1
  20.8% | i | -0.1
CCOC(=O)N1CCN(C(=O)c2oc(=O)c3ccccc3c2-c2ccc(C)cc2)CC1
  -4.1% | i | 1.22
CCN1CCN(C(=O)C2c3cc(OC)c(OC)cc3C(=O)N(C)C2c2ccc(SC)cc2)CC1 (centres undefined)
  6.5% | i | .
COc1ccc(CCNC(=O)CN(c2ccc(C)cc2)S(=O)(=O)c2c(C)noc2C)cc1OC
  3.9% | i | -0.61
CCCOc1ccc(S(=O)(=O)NCCCN2CCOCC2)c2ccccc12
  1.2% | i | -0.87
CCNC(=O)C1CC(=O)N(c2ccc(Br)cc2)C1 (centres undefined)
  -5.2% | i | 0.29
CCC(C)NC(=O)C1CCN(S(=O)(=O)c2ccc(OC)cc2)CC1 (centres undefined)
  4.4% | i | .
COc1ccc(C(=O)Nc2ccc3c(c2)nc(CN2CCN(C(C)=O)CC2)n3C)cc1
  1.6% | i | .
CN(c1ccccc1C(=O)Nc1ccccc1C(=O)NCc1ccco1)S(C)(=O)=O
  0.5% | i | 0.38
Cc1noc(C)c1S(=O)(=O)N(CC(=O)Nc1ccc2c(c1)OCO2)c1ccc(C(C)C)cc1
  -0.1% | i | 2.23
O=C(CSc1ncc(C(F)(F)F)cc1Cl)N1CCN(S(=O)(=O)c2ccccc2)CC1
  -8.0% | i | 1.61
Cn1cc[nH]c1=S
  -8.6% | i | -1.17
Cc1ccc(OCc2nnc(SCC(=O)N3CCOCC3)n2C)cc1
  -9.0% | i | -0.14
O=C(CSc1nc2ccccc2o1)c1cc2ccccc2oc1=O
  6.8% | i | -0.23
COc1ccc(-n2c(C)c(C(C)=O)c(C(C)=O)c2C)cc1
  -6.3% | i | .
O=C(O)c1cc2nc3c(c(C(F)(F)F)n2n1)CCc1ccccc1-3
  -2.3% | i | 1.85
COc1ccc(OC)c(N(CC(=O)Nc2cccnc2)S(C)(=O)=O)c1
  -3.8% | i | .
CCCCC(=O)c1c(C)cc(C)[nH]c1=O
  9.0% | i | -0.28
COc1ccc(CNc2nc3c(c(=O)[nH]c(=O)n3C)n2Cc2ccccc2C)cc1
  -3.9% | i | -0.42
Cc1ccc2c(COC(=O)C3=COCCO3)cc(=O)oc2c1
  1.6% | i | 1.07
COc1ccc(-c2nnc(SCc3ccccn3)n2C)cc1
  0.3% | i | .
Cc1ccc(-c2nn(CC(=O)NCc3ccco3)c(=O)c3ccccc23)cc1
  -7.6% | i | 0.55
CCOC(=O)c1c(NC(=O)CSc2nnc(C)s2)sc2c1CCC(CC)C2 (centres undefined)
  1.7% | i | .
O=C1C(=O)N(c2ccccc2)c2ccccc21
  3.5% | i | .

# An excerpt of these results, field by field:
> Cc1ccc2c(COC(=O)C3=COCCO3)cc(=O)oc2c1
- Hsc70 ATP site: 1.6%
- MT1-MMP promoter: i
- WNV NS2B-NS3 inh: 1.07
> CCOC(=O)c1c(NC(=O)CSc2nnc(C)s2)sc2c1CCC(CC)C2 (centres undefined)
- Hsc70 ATP site: 1.7%
- MT1-MMP promoter: i
- WNV NS2B-NS3 inh: .

# Screening data as filed in PubChem.
